Compound activity deposited in PubChem BioAssay by several laboratories.
KOR beta-arrestin-1 = KOR agonists, beta-arrestin recruitment, primary screen, cell-based, luminescence, uHTS (AID 1777); KOR beta-arrestin recruitment, luminescence; higher % means a stronger effect; activation, % at 10 µM, or EC50 in µM where a hit was titrated; hit rate 0.02% among 280,000; in the data active means activation above about 50%, passing the limit was not always enough; further: a part of the inactive calls stands beside numbers as strong as those of hits
GPR55 antagonists = GPR55 antagonists blocking LPI-driven arrestin recruitment, primary screen, imaging, U2OS, beta-arrestin-GFP, LPI agonist (AID 2013). U2OS GPR55 beta-arrestin-GFP translocation imaging, LPI antagonism; higher % means a stronger effect. one-dose inhibition, % at 10 µM; IC50 in µM for titrated hits. hit rate 0.13% among 290,000;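 active means spots per cell inhibited over 60%, with over 100 cells counted and total cytoplasm intensity under 500,000; inconclusive means wells with under 100 cells, flagged as likely toxic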;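 further: U2OS cells stably carrying GPR55 and arrestin-GFP stimulated by 5 µM LPI near EC80; imaged beta-arrestin-GFP aggregate spots per cell after agonist stimulation; plate controls were LPI-stimulated DMSO wells for no effect and DMSO wells without LPI for full effect; some results filed as inactive read as strong as hits; confirmed hits need IC50 under 10 µM and bright autofluorescent wells are also inconclusive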
GPR55 activation = GPR55 agonists via beta-arrestin recruitment, primary screen, imaging, U2OS cells, beta-arrestin-GFP redistribution (AID 1961) | G-protein coupled receptor 55 (Homo sapiens) | U2OS GPR55 beta-arrestin-GFP redistribution imaging; higher % means a stronger effect | activation, % at 10 µM, or EC50 in µM where a hit was titrated | hit rate 0.048% among 290,000;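 active means activation above 40% with more than 50 cells counted in the well; inconclusive means wells holding fewer than 50 cells, flagged as toxic or sparse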;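 further: U2OS osteosarcoma cells stably expressing GPR55 and beta-arrestin-GFP; plate controls were DMSO negative control for no effect and LPI positive control for full effect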
KOR beta-arrestin-2 = KOR antagonists, beta-arrestin recruitment, cell-based, luminescence, uHTS (AID 1778) | KOR beta-arrestin recruitment, luminescence, antagonist mode; higher % means a stronger effect | inhibition, % at 10 µM; hits with a dose series show IC50 in µM | hit rate 0.091% among 290,000; in the data active means inhibition above about 50%; further: strong numbers were not always called active
MgcRacGAP inhibition = MgcRacGAP GTPase-activating activity inhibitors, confirmation, biochemical, ADP Hunter fluorescence; Rac GTPase-activating protein 1 (Homo sapiens); MgcRacGAP-stimulated Rac1 GTP hydrolysis, ADP Hunter fluorescence; higher % means a stronger effect; GST-tagged Rac1 F28L mutant substrate; inhibition, % at 30 µM, or IC50 in µM where a hit was titrated; hit rate 0.6% among 340,000; AID 624330, 2012;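 active means first-screen hits whose inhibition reached a set limit at any dose in the follow-up dose series; inconclusive means inhibition above the set first-screen limit but never retested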;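 further: fluorescence reports GDP produced by GAP-driven GTP hydrolysis; strong numbers were not always called active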
HIV fusion peptide = inhibitors of HIV fusion peptide binding, primary screen, biochemical, uHTS, fluorescence dequenching (AID 1986). inhibition, % at 20 µM; hits with a dose series show IC50 in µM. hit rate 0.3% among 290,000. cell-free peptide binding, fluorescence dequenching, 30 min; higher % means a stronger effect; in the data active means inhibition mostly above about 52%, no sharp cut-off; inactive means mostly below about 76%; further: some results filed as inactive read as strong as hits
SV40 large T antigen = SV40 large T antigen inhibitors, biochemical (AID 1903) | SV40 large T antigen ATPase/helicase inhibition assay; higher % means a stronger effect | inhibition, % at 20 µM, or IC50 in µM where a hit was titrated | hit rate 0.39% among 310,000; in the data active means a potency from the dose series; inconclusive means inhibition mostly from about 32% at the one dose, without a potency; inactive means the rest, 99 in 100 with inhibition below about 32%; further: strong numbers were not always called active
Starred values were filed as active, the others as inactive; ? = inconclusive; / = not tested or not shown; [ ] = remark or other dose. This is a subset; rates above refer to the full screens.

1) CC(=O)N(Cc1ccc(F)cc1)C1=C(NCc2ccccc2)C(=O)c2ccccc2C1=O
2) COc1cc(C2C(C#N)=C(N)Oc3c2ccc2ccccc32)ccc1OCC(=O)Nc1ccccc1C (stereo not given)
3) Cc1ccc(Sc2ccc(/C=C3/C(=O)NN(c4ccccc4)C3=O)o2)cc1
4) CCn1c(Oc2ccccc2F)nc2c1c(=O)n(C)c(=O)n2C
5) CCN(CC)S(=O)(=O)c1ccc2[nH]cc(C(=O)NCCC3=CCCCC3)c(=O)c2c1
6) CCCc1nnc(NC(=O)c2nc(S(=O)(=O)Cc3cccc(C)c3)ncc2Cl)s1
entry no.	1	2	3	4	5	6
HIV fusion peptide	3.3%	10%	9.4%	0.0%	-2.6%	1.6%
GPR55 antagonists	16%	-16%	14%	-6%	-7%	-1%
KOR beta-arrestin-2	9%	-11%	-28%	-23%[20 µM]	-45%	-10%
KOR beta-arrestin-1	-2.6%	1.6%	2.5%	-3.5%	10%	1.9%
SV40 large T antigen	6%	10%	20%	9%	8%	23%
MgcRacGAP inhibition	9%	1%	8%	0%	11%	15%
GPR55 activation	0.2%	-0.1%	0.8%	-0.3%	-0.2%	-0.1%

7) O=C(CSc1n[nH]c(-c2ccccn2)n1)Nc1cccc(Cl)c1
8) N#CC1=C(N)N2C(=C(C#N)C1c1ccc(Br)cc1)Nc1ccccc12 (stereo not given)
9) COc1ccc(-c2cc(C(F)(F)F)nc(S(C)(=O)=O)n2)cc1OC
10) Cc1cccc(NC(=S)N/N=C/c2ccc([N+](=O)[O-])s2)c1
11) CC1Cc2cc(S(=O)(=O)N3CCN(c4ccc(Cl)cc4)CC3)ccc2N1C(=O)C1CC1 (stereo not given)
12) COc1ccc(Cn2c(O)c(C=Nc3ccccc3C(=O)O)c3ccccc3c2=O)cc1
entry no.	7	8	9	10	11	12
HIV fusion peptide	0.2%	0.9%	-1.8%	14%	1.4%	57%
GPR55 antagonists	26%	1%	-12%	18%	0%	-5%
KOR beta-arrestin-2	8%	-17%	-8%	3%	-31%	-63%
KOR beta-arrestin-1	1.3%	6.8%	8.4%	-2.7%	-0.5%	4.7%
SV40 large T antigen	2%	-3%	27%	3%	6%	22%
MgcRacGAP inhibition	7%	/	10%	13%	6%	9%
GPR55 activation	-0.1%	-0.2%	24%	0.2%	-0.2%	-0.1%

13) CC(C)(C)OC(=O)COc1cc(OCC(=O)OC(C)(C)C)c2c(=O)cc(-c3ccccc3)oc2c1
14) COc1ccccc1-c1nnc(SCC(=O)Nc2nc(-c3ccccc3)cs2)n1C
15) COc1cccc(/C=N/NC(=O)CNC(=O)C(c2ccccc2)c2ccccc2)c1O
16) COc1ccccc1OCC(=O)OC/C(O)=C(\C#N)c1nc2ccccc2[nH]1
17) COc1cc(/C=C2/C(=N)N3C=CSC3=NC2=O)ccc1OCCCOc1c(C)cccc1C
18) O=C(Nc1nnc(-c2cccs2)o1)c1cccc(Oc2ccccc2)c1
entry no.	13	14	15	16	17	18
HIV fusion peptide	-1.6%	-1.3%	-2.3%	0.6%	5.5%	-0.3%
GPR55 antagonists	12%	7%	-1%	-17%	13%	-5%
KOR beta-arrestin-2	-30%	42%	1%	-31%	-31%	9.8µM*
KOR beta-arrestin-1	2.1%	13%	-1.1%	4.9%	3.5%	-5.3%
SV40 large T antigen	4%	-14%	0%	18%	8%	1%
MgcRacGAP inhibition	6%	11%	-3%	0%	6%	13%
GPR55 activation	-0.1%	-0.3%	0.0%	-0.2%	4.7µM*	0.4%

Values by screen from above:
Entries 9–17 in KOR beta-arrestin-2 read -8%, 3%, -31%, -63%, -30%, 42%, 1%, -31%, -31%

Entries of single compounds as entered above. Screens in order: HIV fusion peptide, GPR55 antagonists, KOR beta-arrestin-2, KOR beta-arrestin-1, SV40 large T antigen, MgcRacGAP inhibition, GPR55 activation
COc1cc(C2C(C#N)=C(N)Oc3c2ccc2ccccc32)ccc1OCC(=O)Nc1ccccc1C (stereo not given) as listed: 10%, -16%, -11%, 1.6%, 10%, 1%, -0.1%
CC(C)(C)OC(=O)COc1cc(OCC(=O)OC(C)(C)C)c2c(=O)cc(-c3ccccc3)oc2c1 as listed: -1.6%, 12%, -30%, 2.1%, 4%, 6%, -0.1%
Cc1cccc(NC(=S)N/N=C/c2ccc([N+](=O)[O-])s2)c1 as listed: 14%, 18%, 3%, -2.7%, 3%, 13%, 0.2%

Additional structures.
19) C=CCn1c(O)c(N=NC(=S)Nc2ccccc2F)c2ccccc21
20) C(=N\Nc1nc(-c2ccccn2)nc2ccccc12)/c1ccccc1
21) CN(C)S(=O)(=O)c1ccc(C(=O)Nc2nc(-c3cc4ccccc4o3)cs2)cc1
22) COc1ccc2cc(C(=O)Nc3ccc(F)cc3)sc(=O)c2c1OC
23) COc1ccc2cc3c(N)nn(C(=O)c4ccccc4[N+](=O)[O-])c3nc2c1
24) CN(C)c1ccc(/C=N/NC(=O)c2ccccc2)cc1
25) COc1ccc2[nH]c(C(=O)N/N=C/c3ccc(O)cc3O)cc2c1
26) O=C(Nc1ccc(C(F)(F)F)cc1)C1CCN(S(=O)(=O)c2ccc(N3CCCC3=O)cc2)CC1
27) N=C1SCC(=O)N1c1ncc(Cc2ccccc2Cl)s1
entry no.	19	20	21	22	23	24	25	26	27
HIV fusion peptide	-3.6%	-2.3%	0.7%	0.1%	3.7%	-0.1%	-3.5%	-0.1%	4.3%
GPR55 antagonists	36%	13%	1%	15%	-6%	-8%	11%	-24%	38%
KOR beta-arrestin-2	40%	76%*	-26%	-49%	-33%	-6%[20 µM]	-39%	-18%	6.6µM*
KOR beta-arrestin-1	-8.3%	-4.6%	7.9%	2.3%	-5.5%	/	-0.7%	1.8%	-9.8%
SV40 large T antigen	21%	8%	7%	12%	13%	18%	10%	8%	0%
MgcRacGAP inhibition	6%	/	-1%	1%	9%	13%	?	2%	2%
GPR55 activation	0.1%	-0.1%	0.3%	-0.1%	-0.2%	0.5%	-0.1%	0.7%	-0.1%
